# Assay outcomes from PubChem.
# Mtb bLac sens = beta-lactam sensitization of Mtb H37Rv. inhibition, % at 25 µM. AID 434955. M. tuberculosis H37Rv growth with meropenem, percent inhibition; hits of this screen are not shown here. 330,000 compounds, 0.27% hits;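 active = about 74% or more and at least 40 points above the plate without the antibiotic, then above 30% in a dose series; inconclusive = first-round hits that could not be retested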;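 note: growth measured after seven days incubation then overnight dye step; 0% = bacteria only wells and 100% = bacteria with antibiotic; twin plates without the antibiotic show which effects depend on it; some results filed as inactive read as strong as hits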
# Arbovirus inh = antivirals against arbovirus infection; arbovirus infection cell-based antiviral screen; inhibition, % at 10 µM; 200,000 compounds, 0.37% hits;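 active = inhibition from about 30%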;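 note: bluetongue infection of BSR cells; cell survival read as ATP light after 72 h; 0% = infected wells without compound and 100% = uninfected wells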
# YopH inh = YopH (Yersinia) phosphatase inhibition; fluorescence Ex485/Em525; inhibition, %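 (about 10 µM by stock and volumes)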; 140,000 compounds, 0.16% hits; AID 898;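 active = inhibition of 50% or more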;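 note: controls were vehicle for no effect and minimum signal wells for full effect; inactives centre near -20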
# RecA splice inh = blocks M. tuberculosis RecA intein splicing; P9WHJ3; cell-free RecA intein splicing, fluorescence; inhibition, %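 (about 9 µM by stock and volumes)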; 290,000 compounds, 0.75% hits; AID 2221; in the data active = inhibition above about 30%; inconclusive = no clear call, values can overlap the other calls;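 note: 0% = vehicle wells and 100% = reference inhibitor control wells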
# Target sequence (P9WHJ3 whole entry, looked up, canonical isoform): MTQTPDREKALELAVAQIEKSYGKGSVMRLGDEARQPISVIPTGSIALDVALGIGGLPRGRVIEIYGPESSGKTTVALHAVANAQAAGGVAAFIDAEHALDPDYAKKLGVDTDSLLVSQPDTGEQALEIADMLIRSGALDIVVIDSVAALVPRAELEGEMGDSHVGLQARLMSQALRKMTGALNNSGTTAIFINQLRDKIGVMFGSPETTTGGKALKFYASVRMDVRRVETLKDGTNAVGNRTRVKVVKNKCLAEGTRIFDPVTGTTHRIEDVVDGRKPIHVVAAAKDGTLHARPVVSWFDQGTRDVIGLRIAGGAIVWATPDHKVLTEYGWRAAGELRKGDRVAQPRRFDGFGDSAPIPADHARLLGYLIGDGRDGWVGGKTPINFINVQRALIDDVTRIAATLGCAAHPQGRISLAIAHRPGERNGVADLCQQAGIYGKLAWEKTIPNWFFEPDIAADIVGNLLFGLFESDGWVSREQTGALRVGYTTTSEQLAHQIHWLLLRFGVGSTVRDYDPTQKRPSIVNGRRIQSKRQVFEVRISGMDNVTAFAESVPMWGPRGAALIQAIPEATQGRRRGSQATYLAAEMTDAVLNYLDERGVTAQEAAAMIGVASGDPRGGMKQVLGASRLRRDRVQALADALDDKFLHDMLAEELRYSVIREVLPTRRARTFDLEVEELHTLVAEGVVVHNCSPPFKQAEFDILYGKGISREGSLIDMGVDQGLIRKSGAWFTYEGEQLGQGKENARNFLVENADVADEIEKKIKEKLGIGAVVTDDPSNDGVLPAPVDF
# Mtb H37Rv = M. tuberculosis H37Rv growth inhibitors, H37Rv strain (AID 1626); one-dose inhibition, % at 10 µM; IC50 in µM for titrated hits; M. tuberculosis H37Rv growth inhibition; higher % means a stronger effect; 220,000 compounds, 0.95% hits;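 active = confirmed in a dose series; inconclusive = inhibition above 80% but not taken into the dose series; inactive = below 80% or under 30% at every dose of the series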;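 note: bacteria incubated seven days before Alamar blue readout; 0% = bacteria only wells and 100% = bacteria with antibiotic wells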
# Numbers without * were called inactive; ? = inconclusive; · = no result given. An excerpt; count on the stated rates, not on these rows.
SMILES,Mtb bLac sens,Arbovirus inh,YopH inh,RecA splice inh,Mtb H37Rv
N[C@@H](Cc1ccccc1)C(=O)N1CCC(C(=O)N[C@@H](Cc2c[nH]c3ccccc23)C(=O)O)CC1,4.7,·,·,-1.8,·
COc1cc(OC)c(-c2nc(-c3ccncc3)no2)cc1OC,-3.8,·,·,0.4,·
O=C(c1ccc(F)cc1)N(Cc1ccccc1)C1CCS(=O)(=O)C1 (centres undefined),-3.1,-5.1,-9.3,18.2,1.2%
Cc1ccc(N2CC(C(=O)Nc3ccc(S(=O)(=O)N4CCOCC4)cc3)CC2=O)cc1Cl (centres undefined),1.2,·,·,-1.3,·
CNC(=O)n1cc(C)c(-c2cccs2)n1,-2.8,·,·,1.4,-8.5%
CCOC(=O)Cc1[nH]nc2c1C(c1ccoc1)C(C#N)=C(N)O2 (centres undefined),11.4,-4.1,-3.9,65.1*,-10.1%
COc1ccccc1C1C(C#N)=C(N)Oc2cc(C)n(CCCn3ccnc3)c(=O)c21 (centres undefined),0.2,7.1,-28.9,-1.8,-8.3%
Cc1cc(C(=O)OCC(=O)NC(C)C)c(C)o1,4.8,-0.8,-16.2,-1.1,·
Cc1ccc(SC[C@H](Cc2ccccc2)N2CC[C@@H](C)CCC2=O)cc1,-0.1,·,·,1.4,·
Cc1ccc(NC(=O)c2csnn2)c(C)c1,-4.4,-5.4,0.1,0.6,0.4%
CCCCNC(=O)NNC(=O)c1ccco1,-5.2,-3.8,-11.2,2.0,7.3%
COc1ccccc1NC(=O)N(Cc1cccs1)Cc1cc2cc3c(cc2[nH]c1=O)OCO3,-5.4,-14.4,-24.5,-1.9,9.8%
NC(=O)c1cccc2c1-c1ccccc1/C2=N/NC(N)=S,?,·,·,1.6,·
CN(CC(=O)Nc1ccc(Cl)c(C(F)(F)F)c1)C(=O)Cc1ccsc1,-11.6,·,·,1.2,·
COc1ccc(/C=N/NC(=O)c2csc(-n3nc(C)cc3C(F)(F)F)n2)cc1,-9.4,-19.8,-13.5,1.0,3.8%
CCOC(=O)N1CCN(c2nc3ccccc3nc2C(C#N)S(=O)(=O)c2ccc(C)cc2)CC1 (centres undefined),3.2,18.4,-5.1,-18.3,·
Cc1cs/c(=N\N=C2CCCCC2)n1Cc1ccco1,4.2,13.6,·,-6.9,-4.8%
COC(=O)CNC(=O)C(C)NC(=O)OCc1ccccc1 (centres undefined),-4.9,17.2,-3.9,0.1,0.3%
CCOC(=O)N/N=C(\C)c1ccc(-n2cnnn2)cc1,-6.5,4.1,·,0.0,-1.8%
COc1ccc(C)c2sc(N(CCN(C)C)C(=O)c3ccc4ccccc4c3)nc12,5.8,·,·,7.8,·
CCN(CC)CCC(c1ccc2c(c1)OCO2)c1c(OC)cc(OC)c2ccc(=O)oc12 (centres undefined),-1.8,·,·,-1.0,-15.9%
N/C(Cc1nc(-c2ccc(Cl)cc2)cs1)=N/O,34.7,·,·,-1.6,-11.0%
CCOc1ccc(C2C(C(C)=O)=C(O)C(=O)N2CCc2c[nH]c3ccccc23)cc1 (centres undefined),-1.0,1.1,·,-6.2,4.0%
CN(CCOc1ccccc1)CC(=O)Nc1cccc(Br)c1,-15.6,-6.7,·,1.6,-0.4%
O=C(NCc1ccc2c(c1)OCO2)c1cccnc1,5.8,3.6,-102.2,-0.7,-4.0%
COc1ccc(N2CCN(C(=O)c3ccccc3)CC2)c([N+](=O)[O-])c1,-4.6,-0.3,·,-1.8,4.1%
CCOC(=O)CSc1nc(=O)n2cc(C)ccc2n1,1.6,3.2,·,1.2,4.0%
CC1=NN(c2nc(C)cc(C)n2)C(=O)C1CCC(C)C (centres undefined),-1.9,-1.5,-1.2,2.3,-1.6%
COc1cc2[nH]c(=S)n(C3CC3)c(=O)c2cc1OC,0.5,-3.3,·,2.6,0.3%
CSc1nnc(NC(=O)c2ccc3c(c2)OCO3)s1,-4.1,·,·,-6.7,·
CCOc1ccc(NC(=O)C/C(C)=N/NC(=O)Cc2cccs2)cc1,86.5,·,·,-7.5,·
COc1ccc(-c2noc(CCC(=O)NCCN(C)Cc3ccccc3)n2)cc1,-2.0,-0.3,-7.7,-0.5,2.2%
COc1cccc(C(=O)CN2CCN(S(=O)(=O)c3ccc(Br)cc3)CC2)c1,-14.2,3.7,-46.7,2.4,-0.3%
CC12CCC(C(=O)NCc3ccccc3Cl)(CC1=O)C2(C)C (centres undefined),-8.6,17.5,·,-0.4,-1.6%
O=C(NC1CCCC1)C1CCN(S(=O)(=O)c2cccc3cccnc23)CC1,2.6,1.0,-39.7,0.8,-3.3%
Clc1cccc(OCCCN2CCCC2)c1Cl,-1.8,-9.1,-35.5,0.2,2.7%
Cc1onc(-c2ccccc2)c1C(=O)NNC(=S)NC(=O)c1ccc(F)cc1,6.1,-13.5,-35.1,4.2,?
N#CCNC1CC(=O)N(c2ccc(F)cc2)C1=O (centres undefined),0.1,·,·,-5.5,·
CC(=O)N1c2ccc(S(=O)(=O)N3CCC(C(=O)Nc4cccc(F)c4)CC3)cc2CC1C (centres undefined),-0.5,·,·,-3.9,·
COc1ccc(Cn2c(=O)c3cccnc3n(Cc3ccc([N+](=O)[O-])cc3)c2=O)cc1,-0.7,-14.4,·,-1.5,2.0%
CSc1cccc(NS(=O)(=O)c2cn(C)cn2)c1,-0.3,·,·,-1.3,·
COc1ccc(NC(=O)CSc2nnc(-c3ccccc3Cl)n2Cc2ccco2)c(OC)c1,-1.7,3.7,-33.5,5.4,-1.2%
O=C1NC(=S)S/C1=C\c1coc2ccccc2c1=O,1.8,11.0,·,0.8,-10.0%
COc1ccc2c(c1)S(=O)(=O)c1ccccc1N2,3.5,·,·,·,-3.5%
COc1ccc(CONS(=O)(=O)c2ccc(NC(C)=O)cc2)cc1Cl,?,8.1,-23.4,2.3,0.7%
CCN(CC)c1ccc(NC(=O)COC(=O)CCC(=O)c2ccc(F)cc2)cc1,-3.3,5.3,-9.9,-3.2,0.6%
CCCn1nnnc1NCc1ccc(SC)cc1,2.8,·,·,-2.3,·
Cc1ccc(C(=O)NCC(=O)N2CCC(Cc3ccccc3)CC2)cc1,10.7,·,·,3.4,·
CN(C)S(=O)(=O)c1cccc(NC(=O)c2cc3ccccc3o2)c1,67.8,-1.1,-10.1,3.6,-16.2%
O=C(NC1=NCCS1)C12CC3CC(C1)CC(C(=O)NC1=NCCS1)(C3)C2,2.5,-2.2,-3.1,-4.4,-13.5%
CCCS(=O)(=O)N1CCN(Cc2ccco2)CC1,7.7,-5.0,-29.6,-9.0,-1.0%
CCC1(c2ccc(F)cc2)NC(=O)N(CC(=O)NCc2ccccc2Cl)C1=O (centres undefined),3.2,·,·,1.1,·
O=C(O)c1ccccc1NS(=O)(=O)c1cccc2cccnc12,-6.0,7.5,-46.9,-0.7,-11.2%
CCc1ccc(NC(=O)CC2C(=O)NCCN2C(=S)Nc2ccccc2)cc1 (centres undefined),-3.7,-5.4,-25.0,-2.4,-0.3%
CCCCOCCCNC(=O)c1ccc([N+](=O)[O-])c(C)c1,-6.1,0.1,-44.7,0.1,4.0%
Cc1ccc(-c2noc(CSc3nc(N)cc(N)n3)n2)cc1,2.7,14.2,-35.8,0.1,6.3%
COc1cccc(CN=c2c([N+](=O)[O-])nn(-c3ccccc3C)n2O)c1,4.5,2.7,·,1.9,1.5%
CC1(c2ccc(OC(F)F)cc2)NC(=O)N(CC(=O)Nc2cccc(S(N)(=O)=O)c2)C1=O (centres undefined),-7.3,·,·,3.0,67.0%
CSC(=S)N/N=C/c1ccccc1,99.6,-7.0,·,-2.2,?
CCN(CC)S(=O)(=O)c1ccc(NC(=O)CSc2cccc[n+]2[O-])cc1,25.9,10.1,-8.0,·,0.5%

# Record cards, as listed above. Values in the order: Mtb bLac sens	Arbovirus inh	YopH inh	RecA splice inh	Mtb H37Rv
# CN(CC(=O)Nc1ccc(Cl)c(C(F)(F)F)c1)C(=O)Cc1ccsc1 is entered as -11.6	·	·	1.2	·
# Cc1ccc(NC(=O)c2csnn2)c(C)c1 is entered as -4.4	-5.4	0.1	0.6	0.4%
# CCOc1ccc(C2C(C(C)=O)=C(O)C(=O)N2CCc2c[nH]c3ccccc23)cc1 (centres undefined) is entered as -1.0	1.1	·	-6.2	4.0%
# CCCS(=O)(=O)N1CCN(Cc2ccco2)CC1 is entered as 7.7	-5.0	-29.6	-9.0	-1.0%

# (next part)
SMILES,Mtb bLac sens,Arbovirus inh,YopH inh,RecA splice inh,Mtb H37Rv
COc1ccc(-c2[nH]ncc2CN2CCC(N3CCSCC3)CC2)cc1F,-1.6,4.2,·,5.9,-4.1%
COCCn1c(SCC(=O)N2CCCCC2)nc2c(c1=O)SC(C)C2 (centres undefined),-3.2,·,·,1.8,·
Cc1cc(NC(=S)NC(=O)c2ccccc2)ccc1-c1cc2ccccc2oc1=O,?,-13.2,-21.2,-3.4,-0.1%
COc1ccc(S(=O)(=O)N(CCc2ccccc2)CC(N)=O)cc1,1.1,-5.0,·,-3.3,1.9%
O=S(=O)(c1ccc2c(c1)OCCO2)N1CCC(n2nnc3cc(F)ccc32)CC1,-16.4,5.0,-32.7,1.5,2.5%
COc1ccccc1NCC(=O)Nc1cc(S(=O)(=O)N2CCOCC2)ccc1N1CCOCC1,-1.0,-6.5,·,5.5,-5.8%
CCOC(=O)c1ccc2[nH]c(C)c(CCC(C)=O)c(=O)c2c1,-2.2,-0.5,-36.1,-1.7,-2.8%
CCCN(CCC)C(=O)CC(c1ccccc1)c1cc(C)ccc1O (centres undefined),-3.5,-3.5,-15.3,7.0,7.2%
Cc1ccc2c(c1)C=CC(C)(C)S2(=O)=O,2.5,3.9,-13.5,-0.5,7.8%
COc1cccc(C2/C(=C(/O)c3ccccc3)C(=O)C(=O)N2Cc2ccco2)c1 (centres undefined),10.9,·,·,-0.2,9.6%
COc1ccc(C2CC(c3ccccc3)=NN2c2ccc(/C=N/NC(=O)c3ccncc3)cc2)cc1 (centres undefined),98.7,-22.9,-8.3,-77.1,?
COc1ccc(-c2cc(C(=O)NC(C(=O)O)C(C)C)c(C)o2)cc1OC (centres undefined),-7.1,-1.4,-28.1,-2.2,-0.3%
COc1ccccc1NC(=O)Nc1nc(CC(=O)N2CCN(c3ccccc3)CC2)cs1,43.7,·,·,-2.3,·
CCN(CC)CCN(Cc1cc2cc3c(cc2[nH]c1=O)OCO3)C(=S)NCc1ccco1,-4.5,7.3,·,5.6,-1.7%
COc1cc2[nH]c(=O)n(CCCCCC(=O)N3CC=C(c4ccccc4)CC3)c(=O)c2cc1OC,24.9,1.1,-15.8,7.8,5.7%
O=C(CCl)Nc1cccc(CP(=O)(c2ccccc2)c2ccccc2)c1,96.9,·,·,35.8*,1.3%
Cc1cc(/C=C2\SC(=S)NC2=O)c(C)n1-c1cccc(O)c1,-3.4,·,·,-2.1,-4.3%
COc1cc(CNCc2ccc(SC)cc2)cc(OC)c1,7.0,9.2,-21.6,0.0,3.2%
Cc1ccc(-c2cc(C(=O)OCC(=O)Nc3cc(C)on3)c3ccccc3n2)c(C)c1,-4.1,4.5,-8.5,·,-0.8%
O=C(O)CCC(=O)N1N=C(c2cccs2)CC1c1cccc([N+](=O)[O-])c1 (centres undefined),-0.7,·,·,-1.7,·
CC1(C)CC(=O)C(C(=O)c2ccccc2)C(=O)C1,1.0,1.4,·,-0.7,-5.1%
CC1CN(C(=O)CCNC(=O)c2ccccc2Cl)CC(C)O1 (centres undefined),3.1,·,·,1.5,·
O=C(CN1C(=O)c2ccccc2C1=O)Oc1ccc(F)cc1,-2.8,·,·,5.1,·
O=C(NCc1cccnc1)c1cc(-c2cccs2)on1,-12.9,2.0,-9.7,-1.2,·
O=C(O)Cn1c(SCc2ccccc2)nc2ccccc21,-0.8,3.6,-26.6,-2.9,-0.2%
COc1cccc(N2CCN(C(=S)Nc3ccc(C)cc3C)CC2)c1,-3.8,·,·,-0.9,·
O=C(/C=C/c1ccco1)NC(=S)Nc1ccccc1Br,1.4,·,·,-0.6,·
CN(C)c1ccc(NC(=O)C[n+]2ccccc2)cc1,0.4,·,·,-5.1,·
O=C1CN(c2nc(-c3cccnc3)nc3scc(-c4ccccc4)c23)CCN1,24.1,-11.0,·,5.0,11.6%
CN(C)c1ccc(N/C=C/C(=O)c2ccccc2)cc1,19.2,-25.4,1.5,-0.4,3.9%
COC(=O)CSc1nnc(C)n1-c1ccc(C)cc1,-5.3,10.5,-4.2,-1.7,-0.5%
CC(C)NC(=S)NNc1nc2ccccc2s1,7.6,-6.2,·,-5.4,27.0%
Cc1ccc(C(O)P(=O)(OC(C)C)c2ccc(N(C)C)cc2)cc1 (centres undefined),0.2,·,·,0.2,-2.4%
CC(C)Cc1nnc(NC(=O)Cc2cccs2)s1,-7.6,0.5,·,-0.9,-0.5%
CCCCn1nc2cc(C(=O)NCc3cc(C(F)(F)F)cc(C(F)(F)F)c3)ccc2c1OCC,0.7,-13.5,-38.4,-2.2,1.5%
